Compound activity from PubChem BioAssay.
PABP polyA inh = blocks human PABP binding to poly(A) RNA | actives 1% (n = 290,000) | inhibition, % at 35 µM | AID 2014 | fluorescence polarization;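 active = 50% or more with normal probe brightness, or confirmed in later tests; about a fifth of its hits are not listed in these tables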;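 note: calls also rest on retests at 20 µM and on dose response follow-up; controls were probe without protein and protein plus probe with vehicle; some compounds called inactive have numbers as strong as hits; many hits fall short of the cut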
Target sequence (P11940 whole entry, looked up): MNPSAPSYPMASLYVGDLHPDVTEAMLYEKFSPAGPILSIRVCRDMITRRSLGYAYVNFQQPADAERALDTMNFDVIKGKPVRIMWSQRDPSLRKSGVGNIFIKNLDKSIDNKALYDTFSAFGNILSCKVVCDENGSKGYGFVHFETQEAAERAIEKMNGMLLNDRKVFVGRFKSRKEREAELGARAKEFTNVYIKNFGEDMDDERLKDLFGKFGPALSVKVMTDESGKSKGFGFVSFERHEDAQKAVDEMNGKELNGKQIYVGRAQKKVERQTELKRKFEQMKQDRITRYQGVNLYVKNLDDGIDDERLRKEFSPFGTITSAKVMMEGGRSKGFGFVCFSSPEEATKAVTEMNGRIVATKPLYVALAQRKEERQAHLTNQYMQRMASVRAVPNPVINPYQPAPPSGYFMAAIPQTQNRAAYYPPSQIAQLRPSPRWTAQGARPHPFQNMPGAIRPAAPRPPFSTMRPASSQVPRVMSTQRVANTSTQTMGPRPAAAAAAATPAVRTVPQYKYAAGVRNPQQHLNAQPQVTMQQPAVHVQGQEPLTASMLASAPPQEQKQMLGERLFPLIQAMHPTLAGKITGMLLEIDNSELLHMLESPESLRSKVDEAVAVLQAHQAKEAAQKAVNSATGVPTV
Yeast UUG start = alters start codon recognition fidelity in yeast. actives 0.13% (n = 350,000). S. cerevisiae UUG-firefly luciferase reporter, luminescence/redox ratio. AID 602363. activity score, % at 18.7 µM;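 active = replicate mean at a twofold rise or more, about +100% in these data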;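 note: firefly luciferase made from a UUG start codon reports start codon fidelity; reporter light over untreated wells divided by growth signal over untreated wells; some hits fall short of that in this replicate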
Rce1 inh = inhibitors of yeast Ras-converting enzyme; Q03530; yeast membranes, quenched prenylated peptide cleavage fluorescence; calls only; actives 0.27% (n = 290,000);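 active = fall in fluorescence gain of 50% or more versus controls, with final raw signal at or below 3038400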;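 note: plate controls were neutral control wells for no effect and wells lacking membranes for full effect; tested at 10 µM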
MT1-MMP act inh = blocks activation of human MT1-MMP. HT1080 RFP-PRO-GFP cells, GFP/RFP ratio fluorescence, overnight; percent of plate control window, DMSO zero. GFP/RFP ratio change, % at 20 µM. actives 0.061% (n = 360,000);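 active = GFP/RFP ratio change of at least 30% with cell ATP level not reduced by more than half and red fluorescence within 50% of control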; note: strong numbers were not always called active
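Assay system: RFP-PRO-GFP reporter HT1080 cells; read-out basis: GFP/RFP fluorescence ratio; benchmarks: DMSO wells and RFP-L50D-GFP cells; doses: 20 µM single dose, 1% DMSO; schedule: overnight cell settling, then overnight compound exposure, 37 °C, 5% CO2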
CSC inhib = cancer stem cell inhibition; cancer stem cell-like cells viability, luminescence; AID 2717; inhibition, % at 7.5 µM; actives 1.1% (n = 300,000);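 active = mean at 75% or more and at least half the replicates too; tested in HMLE shEcad cells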;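 note: 0% = median of negative and 100% = median of positive control wells; the first replicate is given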
HIV Env fusion = blocks HIV Env-driven cell-cell fusion; HeLa-JRFL Env/CEM21 cell fusion, luciferase; inhibition, % at 12.3 µM; actives 1.1% (n = 360,000); AID 651610;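 active = mean replicate inhibition score of at least 50 and every replicate individually at or above 50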;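 note: 0% = plate neutral controls and 100% = maraviroc near 300 nM; one replicate is shown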
eIF4H inh = inhibitors of RNA binding by human eIF4H. Q15056. AID 2012. eIF4H fluorescence polarization binding assay. inhibition, % at 35 µM. actives 0.94% (n = 290,000);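 active = 50% or more with normal probe brightness, or confirmed in later tests; about a fifth of its hits are not listed in these tables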;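 note: calls also rest on retests at 20 µM and on dose response follow-up; 0% = protein and probe with vehicle and 100% = probe without protein; strong numbers were not always called active; many hits fall short of the cut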
eIF4H inh retest = also measured in eIF4H inh; calls as there; inhibition, %; compound at 20 µM; confirmation average;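 mean of two retest wells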
PABP polyA inh retest = further read-out of PABP polyA inh, marked with its call; inhibition, %; compound at 20 µM; confirmation repeats;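 mean of two retest wells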
MT1-MMP act inh RFP = second read-out of MT1-MMP act inh, no call of its own (marks repeat the call); RFP signal change, %; measured here: RFP expression control read;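 0 = vehicle wells; hits needed this value within 50% of zero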
The depositor's hits bear a star; i = inactive; x = no result given; & = joins results of further samples; [ ] = another dose, or the depositor's remark. The list is partial (hit frequency here may not be typical).

SMILES	PABP polyA inh	Yeast UUG start	Rce1 inh	MT1-MMP act inh	MT1-MMP act inh RFP	CSC inhib	HIV Env fusion	eIF4H inh	others
O=S(=O)(NCCC1=CCCCC1)c1ccccc1Cl	x	-11	x	8	0	-10	x	x
CCCn1c(SCC(=O)Nc2cccc(Cl)c2Cl)n[nH]c1=O	-4	-5	i	-1	2	14	11	6
Cc1cccc(C(=O)NNC(=O)c2c(O)c3ccccc3n(C)c2=O)c1	16	9	i	4	10	1	1	16
O=C(CSc1n[nH]c(=O)n1C1CC1)c1ccc2c(c1)OCCO2	5	-25	x	2	0	-3	-15	-3
COc1ccc(Cl)cc1NC(=O)CN(C)CC(=O)Nc1ccc2c(c1)OCO2	x	-4	x	1	-1	x	-9	x
Cc1cccc(C)c1NC(=O)CSc1nnc(C2CCCCC2)o1	-8	-17	i	0	1	-24	-21	2
CCOC(=O)c1cc(-c2ccc(F)cc2)n(CC(=O)NCc2ccccn2)c1C	-15	x	i	-1	1	x	9	6
N[C@@H](Cc1ccc(F)cc1)C(=O)O	x	17	x	0	2	x	20	x
O=c1[nH]c2ccccc2c2cn(-c3ccccc3)nc12	0	-15	i	-9	-7	3	0	12
COC(=O)c1ccc(NC(=O)NC2CCCCC2)cc1	-13	x	i	4	5	-1	-2	2
O=C(NC(Cc1c[nH]c2ccccc12)C(=O)O)c1ccco1 (stereo not given)	-4	-5	i	4	2	8	-65	0
COc1ccc(S(=O)(=O)N(C)c2ccc(C(=O)NCCC(C)C)cc2)cc1	-1	16	i	-11	-9	26	x	6
O=c1cc(CSc2nnc(-c3ccco3)o2)c2ccccc2[nH]1	1	-6	i	5	2	-18	-330	8
Cc1cc(=O)n2[nH]c(-c3cccc(Cl)c3)cc2n1	2	-1	i	4	-5	-6	-56	-7
C=CC(=O)N1CCCC(Nc2nc(Nc3ccc(N(C)C(=O)CC)cc3C)nc3nc[nH]c23)C1 (stereo not given)	x	-14	x	0	3	x	19	x
Cc1ccc(CNC(=O)c2cccc3c2C(=O)c2ccc(N4CCOCC4)cc2S3(=O)=O)cc1	x	-8	x	-27	0	-6	21	x
CC(=O)c1ccc(-c2cnc3c(NC=O)cc(-c4cccc(NS(C)(=O)=O)c4)cn23)cc1	x	4	x	-1	-10	x	15	x
C=CCN1C(=O)C(CC(=O)O)SC1=Nc1cccc([N+](=O)[O-])c1 (stereo not given)	22	-32	x	4	4	2	2	-5
COc1ccc(C(=O)CSc2nc(=O)n3ccc(C)cc3n2)cc1	x	-16	x	1	-7	x	7	x
O=S(=O)(c1cc(Cl)ccc1Cl)N1CCN(c2ccccn2)CC1	-1	3	i	3	-3	-1	3	3
O=C(CN1C2=NCCCN2c2ccccc21)c1ccc2c(c1)OCO2	-3	10	i	2	0	7	x	-5
Cc1ccccc1CNC(=O)Nc1ccc(Cl)cc1	-10	-17	i	4	1	-3	-23	-8
COc1ccc(CCN(C)c2ccc(S(=O)(=O)N3CCCC3)cc2[N+](=O)[O-])cc1OC	-6	-8	i	5	-10	-6	50	-2
CCn1c(=O)cc(SCC(=O)N2CCOCC2)c2ccccc21	18	6	i	11	13	0	-31	9
COc1cccc(CNC(=O)CCC2CCCN(C(=O)CCC(F)(F)F)C2)c1 (stereo not given)	-7	-4	i	2	2	-6	10	13
CCN1CCN(C(=O)c2ccccc2N(C)S(=O)(=O)c2ccc(C)cc2)CC1	-9	-16	i	2	-2	-18	-153	-2
C[C@@H](C(=O)NCCc1ccccc1)N1C(=O)N2CCc3c([nH]c4ccccc34)[C@@]2(C)C1=O	6	3	x	-8	-23	-15	x	-1
COc1cc2c(cc1OC)CN(S(C)(=O)=O)CC2	6	-14	i	-3	4	-12	-16	-2
COC(=O)N/N=C/c1ccccc1Cl	4	x	i	-1	2	-3	-11	-1
O=C(NC1(N2CCOCC2)CC1)c1ccc(Cl)cc1	10	-19	i	-3	3	-11	-3	4

Six neighbouring entries out of the list so far:
SMILES	PABP polyA inh	Yeast UUG start	Rce1 inh	MT1-MMP act inh	MT1-MMP act inh RFP	CSC inhib	HIV Env fusion	eIF4H inh	others
O=C(CSc1n[nH]c(=O)n1C1CC1)c1ccc2c(c1)OCCO2	5	-25	x	2	0	-3	-15	-3
COc1ccc(Cl)cc1NC(=O)CN(C)CC(=O)Nc1ccc2c(c1)OCO2	x	-4	x	1	-1	x	-9	x
Cc1cccc(C)c1NC(=O)CSc1nnc(C2CCCCC2)o1	-8	-17	i	0	1	-24	-21	2
CCOC(=O)c1cc(-c2ccc(F)cc2)n(CC(=O)NCc2ccccn2)c1C	-15	x	i	-1	1	x	9	6
N[C@@H](Cc1ccc(F)cc1)C(=O)O	x	17	x	0	2	x	20	x
O=c1[nH]c2ccccc2c2cn(-c3ccccc3)nc12	0	-15	i	-9	-7	3	0	12

Next part:
SMILES	PABP polyA inh	Yeast UUG start	Rce1 inh	MT1-MMP act inh	MT1-MMP act inh RFP	CSC inhib	HIV Env fusion	eIF4H inh	others
Cc1nc(N2CCN(c3ccccn3)CC2)c2c(C)c(C(=O)N3CCN(c4cccc(Cl)c4)CC3)sc2n1	9	-3	i	-6	-16	5	8	3
O=C(NCCCN1CCOCC1)c1cccc(S(=O)(=O)Nc2cc(Cl)ccc2Cl)c1	0	x	i	0	2	3	5	5
CCC(C)Sc1nnc(-c2c[nH]c3ccccc23)n1CCOC (stereo not given)	2	-18	i	-1	1	-5	-60	-6
O=C(CCn1c(=S)[nH]c2cc3c(cc2c1=O)OCO3)NCc1ccc(Cl)cc1	9	-15	i	3	1	-4	1	-1
CC(C(=O)Nc1ccc(S(=O)(=O)N2CCCC2)cc1)N1CCc2ccccc2C1 (stereo not given)	x	0	x	7	-4	-4	-1	x
Cc1ccc(C(=O)Cn2cncn2)cc1	-5	-26	i	-1	-3	-4	3	-9
Nc1nnc(N)c2ccccc12	6	x	i	-2	0	-13	-3	-2
COc1ccc(-n2c(SCC(=O)Nc3ccccc3OC)nc(O)c(Cc3ccccc3)c2=O)cc1	10	-2	i	4	2	-11	-12	-6
Cc1cccc(Cn2c(N3CCN(C)CC3)nc3c2c(=O)[nH]c(=O)n3C)c1	-7	-7	i	-2	-1	3	6	-13
CCC1(c2ccccc2)NC(=O)N(CC(=O)Nc2ccc3c(c2)CCC3)C1=O (stereo not given)	x	-7	x	8	2	x	2	x
CC(=O)c1c(C)[nH]c(C(=O)OCC(=O)Nc2ccc(C)cc2[N+](=O)[O-])c1C	8	x	i	-12	-32	-8	88*	0
O=C(Nc1cc2cc([N+](=O)[O-])ccc2oc1=O)c1cccs1	56*	x	i	x	x	0	x	-18	eIF4H inh retest=36;PABP polyA inh retest=71*
COc1ccc(CCNC(=O)CN2CCN(c3ccccc3Cl)CC2)cc1	2	3	i	3	-3	8	-92	-10
COc1ccc(C(=O)O/N=C(\N)c2ccncc2)cc1OC	3	x	i	2	1	-11	-11	8
C[C@@H]1CN([C@H](C)CO)C(=O)CCCn2nncc2CO[C@@H]1CN(C)C(=O)C1CCCCC1	x	-17&3	x	-1	2	x	27	x
Cc1cc(C)c(S(=O)(=O)c2ccccc2C)c(Oc2ccccc2)n1	14	x	i	1	1	2	x	-5
CN(C)Cc1c(C(=O)N/N=C/c2ccc(OCc3c(F)cccc3Cl)cc2)nnn1-c1nonc1N	10	-10	i	0	-4	30	-3	2
Cc1ccccc1C(=O)N1CCC(C(=O)NC2CCCCCC2)CC1	-1	-12	i	4	5	x	1	-4
CCN(CC)C(=O)C1=C(C)NC(=S)NC1c1ccc(C)s1 (stereo not given)	-4	-20	i	-2	2	-4	4	-3
O=C(COC(=O)CCc1nc2ccccc2c(=O)[nH]1)Nc1ccccc1Cl	28	x	i	-3	3	8	6	8
Cc1ccc(C(=O)NCC(=O)NCC(=O)OCc2ccc(Oc3ccc([N+](=O)[O-])cc3)cc2)cc1	x	-8	i	1	-6	-6	x	x
CCOC(=O)c1ccc(Oc2nc(N(C)C)nc(N3CCOCC3)n2)cc1	30	x	i	0	-5	-5	17	-4
CCOC(=O)c1c(S(=O)(=O)NCC(=O)N2CCN(c3ccccc3OC)CC2)c(C)n(C)c1C	6	-9	i	1	5	8	8	-12
COc1cc(Cl)c(C)cc1NC(=O)CCN1C(=O)NC(C)(C)C1=O	x	-11	x	1	1	x	-1	x
CC(=O)N(C)c1ccc(OCC(O)CN(Cc2ccco2)S(=O)(=O)c2ccc(C)cc2)cc1 (stereo not given)	12	-7	i	0	-8	7	x	-12
Cc1ccc(-n2c(=O)[nH]c3c(C(N)=O)nc(C(C)C)nc32)cc1	1	-11	i	-4	-4	1	9	5
COc1ccccc1Nc1nc2ccccc2n2cnnc12	3	-9	i	2	-1	-7	-16	-12
CCOC(=O)c1ccc(N2Cc3ccccc3C2=NC(=O)c2ccncc2)cc1	-10	x	x	-1	-1	x	-37	5
O=C(OCC(O)COc1ccccc1)c1ccc([N+](=O)[O-])cc1 (stereo not given)	-4	-6	i	2	3	3	11	-3
Cc1[nH]c(=O)[nH]c(=O)c1S(=O)(=O)N1CCCc2ccccc21	-2	-8	i	1	3	7	-12	-6
Cc1sc2nc(C(C)C)nc(SCC(=O)N3CCN(C(=O)c4ccco4)CC3)c2c1C	2	-26	i	0	-5	-13	62*	-9
O=C(COc1ccccc1Br)N1CCN(c2ccccc2)CC1	1	-7	i	4	0	x	21	-8
N#C/C(=C(/O)CN1CCN(c2ccccc2F)CC1)c1nc(-c2ccc(Cl)cc2)cs1	-8	-13	i	19	-8	35	x	2
CCN1C(=O)[C@@H]2[C@H](C1=O)[C@@H]1C(=O)Nc3ccccc3C(=O)N1[C@@H]2c1cccc(Cl)c1	20	-4	i	-5	1	-9	x	-3
CC1CCC(C(C)C)C(OC(=O)CSc2nccc(=O)[nH]2)C1 (stereo not given)	-9	7	i	1	-1	x	20	0
COc1cc(NC(=O)Cn2c(=O)n(CC3CCCO3)c(=O)c3ccccc32)cc(OC)c1 (stereo not given)	-21	x	i	3	1	-9	-7	21
CN(C)S(=O)(=O)c1ccc(-n2cccc2)cc1	-4	x	i	-1	-2	-2	11	1
C/C(=N\NS(=O)(=O)c1ccc(Cl)c([N+](=O)[O-])c1)c1cc2ccccc2o1	12	-12	i	-3	-6	2	21	18
Cc1sc[n+](CC(=O)c2ccc(Br)cc2)c1C	4	-13	i	5	6	-7	0	-4
Cc1ccccc1S(=O)(=O)N(C)C[C@H]1OCc2cn(nn2)CCCC(=O)N([C@@H](C)CO)C[C@@H]1C	x	9&1&-6	x	2	6	x	-12[16.7 µM]	x
CC(C)=Cc1oc2ccc([N+](=O)[O-])cc2c1N1CCOCC1	-5	4	i	-3	-1	-5	1	-4
C[C@H]1CCC2[C@](C)(CO)[C@@H](O)CC[C@]2(C)[C@@]12CCC(CO)(CCO)O2 (stereo not given in full)	6	-4	i	-1	1	-1	2	6
Cc1c(NS(=O)(=O)c2ccc(NCC3CCCO3)c([N+](=O)[O-])c2)c(=O)n(-c2ccccc2)n1C (stereo not given)	12	x	i	0	3	-17	15	-2
Cc1cc(C[n+]2ccccc2)c2nsnc2c1	-1	-12	i	1	-6	-1	x	-4
O=C(c1ccc(F)cc1)c1ccc(-c2ccc(F)cc2)nc1	-8	-9	i	7	3	-6	0	-11
Cc1cccc(S(=O)(=O)NC(=O)C2(C)CCN2C(=O)c2ccccc2)c1 (stereo not given)	x	-12	x	0	6	x	9	x
CCN(CCCNC(=O)CNC(=O)c1nn(-c2ccc(OC)cc2)c(=O)c2ccccc12)c1cccc(C)c1	0	11	i	-1	-4	20	5	-8
